Screening results (PubChem)
TRPV1 PAM: human TRPV1 potentiation; potentiation, % at 8.33 µM; Q8NER1; AID 540277; hit rate 0.02% among 320,000; TRPV1-expressing cells, Fluo-8 calcium influx, capsaicin EC20 potentiation; host cell line not named in the record; control for the full effect not named in the record; active means potentiation above 80%; inconclusive means 30% to 80%; inactive means below 30%; also: 0% is about no effect
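Fluo-8 calcium influx in TRPV1-expressing cells, kinetic read (ex 480/em 520 nm). Compound added and read 3 min for agonist activity, followed by capsaicin at EC20 final and 2 min further read for enhancement.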
CtBP-E1A blk: inhibitors of CtBP/E1A interaction; AID 651724; hit rate 0.49% among 340,000; activity change, % (test concentration not listed); AlphaScreen GST-E1A/His-CtBP binding, 1536-well; active compounds read low; control for the full effect not named in the record; in the data active means activity change below about -65%; inconclusive means about -30% to -65%; inactive means above about -30%; also: % is scaled to controls: 0 for no effect and ±100 for the full control effect
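GST-E1A and His-tagged CtBP (125 nM each as 5X stock) were preincubated with pin-transferred compound for 2 h at 37 °C in the dark, then glutathione donor and nickel acceptor beads were added for 1 h before AlphaScreen reading.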
PINK1 expr mod: changes PINK1 expression; PINK1 immunofluorescence, high-content cytometry, 24 h; Potency, µM (highest dose often 76.6 µM), for the others: top-dose activation (PINK1 increase), most hits filed as activators; hit rate 0.2% among 410,000; active = well fitted activation curve with a large enough effect; inconclusive = small, poorly fitted or top-dose-only effect; inactive = flat fitted curve, though single readings scatter; cell line not stated here;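 also: potency is read from the fitted curve at half-maximal effect; % of control where 0% means no effect; nearly all actives have a fitted effect of over 65% in size; a mitochondrial uncoupler was the plate control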
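Stable cell line treated 24 h with compounds at 5 concentrations (CCCP controls), then fixed and immunostained for PINK1 plus nuclear and cell stains; PINK1 immunofluorescence quantified by laser-scanning microplate cytometry.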
D2 ag: agonists of human D2 dopamine receptor (beta-arrestin). DiscoveRx PathHunter D2 beta-arrestin, luminescence, 90 min; 100% = 57 uM dopamine signal. activation, % (concentration not given with the values). hit rate 0.084% among 360,000. AID 624465; in the data active = activation above about 40%; inconclusive = about 15% to 40%; inactive = below about 15%; also: compound concentration not given in the record; the text of the record calls up to 30% inactive
Target sequence (P14416 whole entry, looked up): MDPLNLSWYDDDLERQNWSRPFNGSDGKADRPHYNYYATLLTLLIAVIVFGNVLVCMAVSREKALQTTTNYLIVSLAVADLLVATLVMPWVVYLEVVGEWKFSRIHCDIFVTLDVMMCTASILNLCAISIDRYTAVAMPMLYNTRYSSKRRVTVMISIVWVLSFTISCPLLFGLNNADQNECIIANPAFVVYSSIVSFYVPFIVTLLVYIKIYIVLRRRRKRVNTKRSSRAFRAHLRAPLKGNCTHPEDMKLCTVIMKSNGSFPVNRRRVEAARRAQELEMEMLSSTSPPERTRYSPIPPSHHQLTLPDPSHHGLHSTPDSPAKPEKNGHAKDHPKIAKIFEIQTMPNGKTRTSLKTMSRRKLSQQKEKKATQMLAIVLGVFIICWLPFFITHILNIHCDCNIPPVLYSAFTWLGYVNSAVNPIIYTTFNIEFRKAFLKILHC
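Agonist mode: compounds alone added to overnight-plated D2 PathHunter cells for 90 min at 37 C, with 57 uM final dopamine (EC100) defining full response. Beta-arrestin recruitment detected by chemiluminescent reagent, read after 1 h at ambient temperature.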
Six1-Eya2 blk: blocks human Six1 binding to Eya2; activity change, % (concentration not given with the values); AlphaScreen GST-Six1/His-Eya2 binding, biochemical; active compounds read low; control for the full effect not named in the record; hit rate 0.56% among 360,000; in the data active = activity change below about -65%; inconclusive = about -30% to -65%; inactive = above about -30%; also: % is scaled to controls: 0 for no effect and ±100 for the full control effect
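Six1/Eya2 binding was read as AlphaScreen signal after compounds were pinned into GST-Six1 plus His-tagged Eya2 (5X stock 250/500 nM) in pH 8.0 Tris/NaCl/TCEP buffer, beads added, then incubated 1 h, 37 C, dark.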
Sfp PPTase inh: blocks B. subtilis Sfp PPTase activity; Q9F4F7; Biochemical Sfp PPTase activity, qHTS; Potency, µM, without a hit: max response, negative = inhibition, hits mostly inhibitors; hit rate 3.5% among 310,000; AID 1490; active = well fitted inhibition curve with a large enough effect; inconclusive = small, poorly fitted or top-dose-only effect, or another doubt; inactive = no such curve, though single readings can be large or run the other way;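 also: the enzyme is Sfp with the accession as filed and its product quenches rhodamine fluorescence; potency is read from the fitted curve at half-maximal effect; 0% = enzyme reaction without inhibitor and -100% = no enzyme wells; top concentration of the series not given in the record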
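Fluorescence-quenching assay with 15 nM Sfp, 5 uM rhodamine-CoA and 12.5 uM BHQ-2-labelled ybbR peptide in pH 7.6 Hepes/MgCl2 buffer. Enzyme was pre-incubated with compound for 15 min at room temperature. Rate was taken from the 30-min fluorescence change (525/598 nm).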
D2 potentiator: positive allosteric modulators of human D2 dopamine receptor; P14416; DiscoveRx D2 beta-arrestin cells, luminescence, 90 min; 100% = 57 uM dopamine signal; potentiation, % (concentration not given with the values); hit rate 0.23% among 360,000; AID 624464; active = potentiation of 50% or more; inconclusive = 30% to 50%; inactive = 30% or less;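 also: compound concentration not given in the record; tested on top of an EC20 dose of dopamine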
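D2 cells co-treated with compound plus 50 nM dopamine (EC20) for 90 min at 37 deg C to detect potentiation. Beta-arrestin recruitment was read as enzyme-fragment luminescence after 1 h at ambient temperature. Full response was set by 57 uM dopamine.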
The depositor's hits bear a star; u = inconclusive; x = not tested or not shown; & = joins results of further samples; [ ] = remark or other dose. An excerpt. The share of hits here may be higher or lower than overall.

SMILES	TRPV1 PAM	CtBP-E1A blk	PINK1 expr mod	D2 ag	Six1-Eya2 blk	Sfp PPTase inh	D2 potentiator
C=Cn1ccnc1P(O)(=S)c1nc(C)c(CCOC(C)=O)s1 (configuration not stated)	0.4	2.5	-0.6%	-0.3	4.8	u	-4.7
CCC(C)n1c(O)c(C=NCCc2ccccc2)c(=O)[nH]c1=S (configuration not stated)	-16.3	2.9	2.8%	-2.7	-7.0	-9.4%	-3.2
CN1CCN(/N=C/c2c(O)n(C)c(=O)n(C)c2=O)CC1	2.0	-9.9	-0.1%	-1.3	12.1	-12.2%	-55.0
Cc1nc2ccccc2c(=O)n1-c1ccccc1[N+](=O)[O-]	-5.9	x	2.3%	-6.1	4.9	25.1%	-4.6
Cc1c(C(=O)N2CCC3(CC2)OCCO3)oc2ccc(S(=O)(=O)N3CCOCC3)cc12	7.1	-2.6	0.1%	-1.6	3.0	8.9%	28.2
O=c1c2ccccc2nc(-c2ccco2)n1-c1ccc(Br)cn1	17.8	-0.2	-1.1%[38.3 µM]	-2.1	0.5	-3.0%	-9.3
CC12CNCC(C)(CNC1)C2O (configuration not stated)	-3.4	4.4	3.0%[38.3 µM]	2.5	2.3	0.3%	0.0
O=C1NCN(c2ccccc2)C12CCN(C(c1cccc3ccccc13)c1nnnn1Cc1ccccc1)CC2 (configuration not stated)	x	-17.7	2.0%	-3.0	-18.6	x	-10.2
CCc1ccc(-n2c(O)c(C(C)=O)c(=O)[nH]c2=O)cc1 (tested in a mixture with another compound)	8.4	-2.0	1.6%	-4.0	1.5	15.2%	-4.6
CCOc1ccc(N=Cc2c(O)n(CCc3ccc(OC)c(OC)c3)c(=O)[nH]c2=O)cc1	-0.7	5.4	4.7%	-0.9	12.8	9.9%	-3.7
COC(=O)C1=C(c2ccc(Cl)c(C(F)(F)F)c2)C[C@@H]2CC[C@H]1N2C(=O)N1CCC(O)(c2ccc(Cl)cc2)CC1	x	-0.4	3.2%	-1.8	-1.7	x	-28.0
Cc1cc(OCCCC(=O)NCc2cccs2)ccc1Cl	-10.4	8.0	3.5%	-3.2	6.9	-11.1%	-2.6
Oc1cccc(/C=N/NP(=S)(c2ccccc2)c2ccccc2)c1	8.1	-10.9	1.2%	-0.9	-6.7	18.6%	3.3
CC(=O)Nc1ccc(OC(=O)c2ccccc2N)cc1	2.6	11.3	x	-0.5	4.8	-28.3%	-3.0
Cc1ccc2nc(C)n(-c3ccc(F)cc3)c(=O)c2c1	3.0	x	-1.3%	2.6	-3.9	-9.6%	-3.5
C=CCN(c1ccc(C(=O)N(CC)CC)cc1)S(C)(=O)=O	-3.6	0.4	-0.2%	-3.7	4.3	7.5%	6.0
Cn1cccc1/C=C1/C(=O)NC(=O)N(Cc2ccccc2)C1=O	14.4	6.0	u	8.5	-1.7	-9.0%	x
Cn1cc(C=C(C#N)C#N)c2ccccc21	11.9	15.3	0.1%	-1.9	3.4	5.0%	0.5
N#CC(C#N)=Cc1ccc(C=C(C#N)C#N)cc1	9.8	-2.0	7.2%	-2.9	-8.6	u	-6.5
O=C(CCl)NCC1CCCO1 (configuration not stated)	0.5	6.6	3.0%	-0.7	3.0	25.1%	-2.2

Retrieved by compound from the entries so far, 3 records:
SMILES	TRPV1 PAM	CtBP-E1A blk	PINK1 expr mod	D2 ag	Six1-Eya2 blk	Sfp PPTase inh	D2 potentiator
CCOc1ccc(N=Cc2c(O)n(CCc3ccc(OC)c(OC)c3)c(=O)[nH]c2=O)cc1	-0.7	5.4	4.7%	-0.9	12.8	9.9%	-3.7
CCC(C)n1c(O)c(C=NCCc2ccccc2)c(=O)[nH]c1=S (configuration not stated)	-16.3	2.9	2.8%	-2.7	-7.0	-9.4%	-3.2
Cc1c(C(=O)N2CCC3(CC2)OCCO3)oc2ccc(S(=O)(=O)N3CCOCC3)cc12	7.1	-2.6	0.1%	-1.6	3.0	8.9%	28.2

No new results follow: 3 of the compounds above.
SMILES	TRPV1 PAM	CtBP-E1A blk	PINK1 expr mod	D2 ag	Six1-Eya2 blk	Sfp PPTase inh	D2 potentiator
Cn1cc(C=C(C#N)C#N)c2ccccc21	11.9	15.3	0.1%	-1.9	3.4	5.0%	0.5
N#CC(C#N)=Cc1ccc(C=C(C#N)C#N)cc1	9.8	-2.0	7.2%	-2.9	-8.6	u	-6.5
O=C(CCl)NCC1CCCO1 (configuration not stated)	0.5	6.6	3.0%	-0.7	3.0	25.1%	-2.2

The list continues:
SMILES	TRPV1 PAM	CtBP-E1A blk	PINK1 expr mod	D2 ag	Six1-Eya2 blk	Sfp PPTase inh	D2 potentiator
CC(C)CN(C(=O)CN1CC=C(c2ccccc2)CC1)c1c(N)n(CC(C)C)c(=O)[nH]c1=O	-11.9	-1.8	-0.6%	1.5	4.6	0.4%	-9.2
O=P(O)(Oc1ccccc1)OC(c1ccccc1)C(F)(F)C(F)(F)F (configuration not stated)	-12.2	4.9	0.4%	1.8	5.4	0.8%	5.5
Cc1ccc(P(=S)(c2ccc(C)o2)N2CCOCC2)o1	-2.0	2.1	-0.3%	-4.0	-11.7	-10.4%	-4.1
CN1CCCCC1c1ccc(-c2cccnc2)nc1 (configuration not stated)	26.3	1.6	0.6%&0.3%	-2.0	2.7	-3.4%&-11.0%&11.9%	-7.0
CN1CCN(CCC(=O)OC2CC3CCC(C2)N3C)CC1 (configuration not stated)	-16.2	6.0	-2.1%	-0.1	6.9	14.0%	2.1
CCCCC(CC)CNCC(O)c1ccccc1 (configuration not stated)	-2.5	6.1	0.3%	-5.4	-2.1	-4.2%	-5.7
COc1cc(OC)c(C=O)c(OC(=O)N(C)C)c1	-2.2	x	0.9%	-3.7	1.2	9.6%	-4.2
CC(C)[C@H]1CC2C3CC=C4C[C@@H](O)CC[C@]4(C)C3CC[C@]2(C)[C@H]1O (some centres not stated)	x	3.0	-1.7%	-0.9	8.1	x	-5.8
CCOc1ccc(-c2cc(C(=O)N3CCC4(CC3)OCCO4)c3ccccc3n2)cc1	x	1.1	10.2%	0.6	5.6	x	0.9
Cc1ccc(N2C(=O)NC(=O)/C(=C/c3cnc(-c4ccccc4)nc3)C2=O)cc1C	9.0	-3.1	0.4%	-4.5	-7.3	u	-6.6
C=CCn1c(O)c(C(C)=NCCc2c[nH]c3ccccc23)c(=O)[nH]c1=O	u	-14.2	-1.4%	-5.1	-9.0	7.8%	-6.6
CS(=O)(=O)c1ccc(C2=C(CNC(=O)c3nccs3)[C@H]3CC[C@@H](C2)N3Cc2ccccc2)cc1	x	4.2	0.4%	-7.0	1.7	x	-1.7
O=C(c1ccc(N2CCCCC2)c([N+](=O)[O-])c1)N1CCC2(CC1)OCCO2	-12.5	-15.5	0.7%	-3.1	-17.9	15.0%	-7.5
C[C@]12CCC3C(CC[C@H]4C[C@H](O)CC[C@]34C)C1CC(=O)[C@@H]2O (some centres not stated)	x	13.0	-1.1%	-7.7	3.7	x	-6.0
O=C1NCN(c2ccccc2)C12CCN(C(c1cccs1)c1nnnn1C1CCCC1)CC2 (configuration not stated)	x	-4.9	4.7%	2.6	-7.7	x	-10.1
CN1C2CCC1CC(OC(c1ccccc1)c1ccccc1N)C2 (configuration not stated)	x	-5.1	0.9%&-1.3%	2.6	-0.2	8.2%&8.8%	-28.5
CN(C)c1ccc(C=C2C(=O)NC(=O)NC2=O)cc1[N+](=O)[O-]	9.6	x	0.8%	4.2	3.1	25.1µM*	-8.4
CCOP(=S)(OCC)Oc1nc(Cl)c(Cl)cc1Cl	-7.6	30.6	u	-5.6	-6.2	35.5µM*	-1.1
NC(Cc1ccc(Cl)cc1)c1csc(Nc2ncccn2)n1 (configuration not stated)	x	u	0.5%	-4.0	u	x	-6.7
Cc1cc(N(CCCl)CCCl)ccc1/C=N/NC(=O)c1ccco1	-10.5	0.2	-1.1%	1.1	-3.2	10.3%	-25.5
CCOC(=O)CC(SP1(=S)OCC2(CCCCC2)CO1)C(=O)OCC (configuration not stated)	x	-1.0	0.3%	2.4	3.5	x	-17.1
Cn1c(O)c(N=Nc2ccc(S(=O)(=O)N3CCOCC3)cc2)c(=O)n(C)c1=O	-12.1	x	-0.7%	-11.4	-0.6	1.7%	-7.4
COc1ccccc1CN1CCCC(C(=O)c2ccccc2OC)C1 (configuration not stated)	0.3	0.8	1.2%	1.8	-0.2	0.5%	-24.7
CCOc1ccc(-n2c(O)c(C=Nc3ccc(NC(C)=O)cc3)c(=O)[nH]c2=O)cc1	6.5	x	1.0%	-3.3	0.2	23.9%	4.1
O=[N+]([O-])c1ccc(Cl)c([N+](=O)[O-])c1	2.4	-6.0	0.1%&-0.7%	5.1	-3.6	x	10.4
Cc1cc(Cl)ccc1C(=O)C1CCCN(C2CCSCC2)C1 (configuration not stated)	0.1	-1.0	10.9%	0.0	-21.0	-7.9%	-11.5
CC12CN3CC(C)(CN(C1)P3(=O)Oc1ccccc1)C2=O (configuration not stated)	-5.2	2.0	0.3%	0.5	8.0	-0.7%	19.8
COC(=O)C1=C(c2ccc(C(C)=O)cc2)C[C@@H]2CC[C@H]1N2C(=O)NC1CC1	-9.5	5.1	2.7%	-1.0	2.5	x	-11.9
CCC1CN(C)CCC1(OC(C)=O)c1ccccc1 (configuration not stated)	-1.6	8.1	2.2%	-2.9	u	41.4%[activator]	11.5
CCN1c2nc3c(C)cccn3c(=O)c2CC2(C(=O)N(C)C(=O)N(C)C2=O)C1C (configuration not stated)	-8.2	5.0	-2.4%	-4.9	-4.5	3.6%	-9.5
CN(C(=O)Oc1ccc(Cl)c2cccnc12)c1ccccc1	-9.9	10.7	0.8%	-6.7	4.9	0.0%	-5.7
CC12CN3CC(C)(CN(C1)C3c1cccs1)C2 (configuration not stated)	-0.2	-11.4	5.6%[38.3 µM]	-0.2	-7.5	10.2%	-1.8
Cc1nonc1OCCNCCNc1ccc([N+](=O)[O-])c2cccnc12	-17.8	-11.0	-0.3%	-4.2	-16.2	-12.9%	-14.0
CC[N+]1(C)CCCC(OC(=O)C(O)(c2ccccc2)c2ccccc2)C1 (configuration not stated)	3.3	-15.6	0.0%	-6.0	6.8	11.5%&15.8%	-31.5
COC(=O)C(=O)N1CC2(C)CNCC(C)(C1)C2=O	4.7	13.7	-0.6%	-2.1	-1.4	-7.6%	2.1
